Source: PubChem (Broad Institute)
A1 inh: inducers of caspase activity in MEF A1-2A-BIM cells, primary screen, A1 inhibitor project, cell-based, CaspaseGlo luminescence | 21,000 tested, 0.51% active | caspase-Glo luminescence, 3 h; percent of clofoctol signal, DMSO as zero | AID 2241, 2010 | caspase activation, % (test concentration not listed);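 active = most replicate scores above 10, or exactly half above 10 with mean activity above 10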;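 note: effector caspase 3 and 7 activity cleaving a DEVD luciferin substrate; 50 nL library stock added to about 30 µL; numbers are from one replicate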
BJeLR viability: BJeLR cell viability loss, primary screen, luminescence, CellTiterGlo ATP; BJeLR fibroblasts viability, 48 h; HRASV12, hTERT and SV40 LT/ST transformed; viability loss activity score, % (test concentration not listed); 30,000 tested, 0.64% active; AID 2275, 2010; in the data active = viability loss activity score above about 50%; about a fifth of its hits are not listed in these tables;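 note: higher score means fewer live cells and less ATP luminescence; stock transfer was 50 or 100 nL into about 30 µL; 0% = vehicle wells and 100% = a reference killing control; one replicate is shown; the record names a cut of 85%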
Numbers without * were called inactive; . = no result given. A portion of the library. The share of hits here may be higher or lower than overall.

SMILES	A1 inh	BJeLR viability
Cc1cccc(CN2CCC(CNC(=O)c3cc4cc5ccc(C)cc5nc4o3)CC2)c1	.	10.7
O=C(Cc1ccccc1)c1cccs1	-1.3	-2.1
C[C@H]1CN([C@@H](C)CO)C(=O)c2cc(NC(=O)Nc3ccc4c(c3)OCO4)ccc2O[C@@H]1CN(C)C(=O)Nc1ccc(F)cc1	0.1	-1.1
COc1ccc(CN(C)C[C@@H]2Oc3ccc(NC(=O)NC(C)C)cc3C(=O)N([C@@H](C)CO)C[C@H]2C)cc1	-0.8	-0.5
C[C@H](CO)N1C[C@H](C)[C@H](CN(C)C(=O)Nc2ccc3c(c2)OCO3)Oc2ccc(NS(=O)(=O)c3ccccc3)cc2C1=O	0.4	-0.6
CCCCCCCCN1C(=O)C(C(C)=O)=C(C)C1(C)O (stereo not given)	-1.5	-5.8
COc1ccc2c(c1)OC/C(=C\c1ccc(OC)c(O)c1)C2=O	0.6	.
Cc1nc(-c2ccc(S(=O)(=O)NCC3CCN(C(=O)OC(C)(C)C)CC3)s2)cs1	.	1.0
CCCCc1ccc(NC(=O)N2CCN(c3cc(C)nc4ccccc34)CC2)c(C)c1	.	8.4
C[C@@H]1CN([C@@H](C)CO)C(=O)c2cc(NS(=O)(=O)c3ccccc3)ccc2O[C@H]1CN(C)S(=O)(=O)c1ccc(F)cc1	0.4	-1.4
Cc1ccc(S(=O)(=O)N(C)C[C@@H]2Oc3ccc(NC(=O)C4CCCCC4)cc3C(=O)N([C@@H](C)CO)C[C@H]2C)cc1	0.2	3.7
Cc1cc(C(C)(C)C)c(O)c(C)c1CC1=NCCN1	-0.4	1.4
Cc1ccc(S(=O)(=O)Nc2cccc3c2O[C@@H](CN(C)S(=O)(=O)c2ccc(Cl)cc2)[C@@H](C)CN([C@@H](C)CO)C3=O)cc1	.	-0.9
C[C@H]1CN([C@@H](C)CO)C(=O)c2cccc(NS(=O)(=O)c3cn(C)cn3)c2O[C@H]1CN(C)C(=O)Nc1ccc(C(F)(F)F)cc1	.	4.9
COC(=O)C(CC(C)C)NS(=O)(=O)c1ccc(-c2nnc(SC)n2C)s1 (stereo not given)	0.0	2.5
COc1ccc(NC(=O)Nc2c(SC)nsc2SC)cc1	-0.2	-2.7
O=C(/C=C/c1ccc(F)cc1)NC(=S)Nc1ccccc1O	.	-3.1
COc1ccccc1-c1cc(=O)c2c(OC)cccc2o1	-2.1	2.7
C[C@@H]1CN([C@H](C)CO)C(=O)c2cccc(NC(=O)NC3CCCCC3)c2O[C@H]1CN(C)S(=O)(=O)c1ccccc1	.	-1.0
CCOC(=O)c1cnc2cc(C(F)(F)F)ccc2c1N(C)Cc1ccccc1	-0.2	-9.0
C[C@@H]1CN([C@@H](C)CO)C(=O)c2cc(NS(=O)(=O)c3cccs3)ccc2O[C@H]1CN(C)Cc1ccc(C(=O)Nc2ccccc2N)cc1	.	1.8
COC(=O)COc1nsnc1N1CCOCC1	.	3.4
COc1ccc(NS(=O)(=O)c2ccc3c4c(cccc24)C(=O)S3)cc1	0.2	0.2
C[C@@H]1CN([C@H](C)CO)C(=O)c2cccc(NC(=O)NC3CCCCC3)c2O[C@@H]1CN(C)CC1CCCCC1	.	-1.6
O=S(=O)(Nc1ccncc1)c1ccc2ccccc2c1	0.1	-1.8

An excerpt from the list above, for reference:
SMILES	A1 inh	BJeLR viability
COc1ccc(NC(=O)Nc2c(SC)nsc2SC)cc1	-0.2	-2.7
O=C(/C=C/c1ccc(F)cc1)NC(=S)Nc1ccccc1O	.	-3.1
COc1ccccc1-c1cc(=O)c2c(OC)cccc2o1	-2.1	2.7
C[C@@H]1CN([C@H](C)CO)C(=O)c2cccc(NC(=O)NC3CCCCC3)c2O[C@H]1CN(C)S(=O)(=O)c1ccccc1	.	-1.0
CCOC(=O)c1cnc2cc(C(F)(F)F)ccc2c1N(C)Cc1ccccc1	-0.2	-9.0
C[C@@H]1CN([C@@H](C)CO)C(=O)c2cc(NS(=O)(=O)c3cccs3)ccc2O[C@H]1CN(C)Cc1ccc(C(=O)Nc2ccccc2N)cc1	.	1.8

Back to the main list; the two compounds before the break are reprinted first.
SMILES	A1 inh	BJeLR viability
C[C@@H]1CN([C@H](C)CO)C(=O)c2cccc(NC(=O)NC3CCCCC3)c2O[C@@H]1CN(C)CC1CCCCC1	.	-1.6
O=S(=O)(Nc1ccncc1)c1ccc2ccccc2c1	0.1	-1.8
CCOC(=O)N1CCC(NC(=O)Nc2ccc3c(c2)CCO3)CC1	.	0.8
Cc1ccc(S(=O)(=O)N(C)C[C@@H]2Oc3ccc(NC(=O)Nc4ccccc4)cc3C(=O)N([C@@H](C)CO)C[C@@H]2C)cc1	1.0	-8.9
CC(C)NC(=O)Nc1cccc2c1O[C@H](CN(C)Cc1ccc(Oc3ccccc3)cc1)[C@@H](C)CN([C@@H](C)CO)C2=O	.	-8.0
CC(C)NC(=O)Nc1ccc2c(c1)C(=O)N([C@H](C)CO)C[C@H](C)[C@@H](CN(C)S(C)(=O)=O)O2	-0.2	-4.3
CNC[C@@H]1Oc2c(NS(=O)(=O)c3ccc(OC)cc3)cccc2C(=O)N([C@@H](C)CO)C[C@@H]1C	.	-1.1
O=C(O)CSc1c2c(nc3cc(C(=O)NC4CCCCCC4)ccc13)CCC2	0.9	-4.0
Cc1ccc(-c2nn(CCC(=O)N3CCCC3)c(=O)c3ccccc23)cc1	0.1	-0.9
O=C(NC1CCCC1)c1nnc(Cc2ccc(Cl)cc2)o1	.	-6.2
COc1ccc(NC(=O)N(C)C[C@H]2Oc3ccc(NC(=O)c4ccncc4)cc3C(=O)N([C@@H](C)CO)C[C@@H]2C)cc1	-0.8	3.3
C[C@@H]1CN([C@@H](C)CO)C(=O)c2cccc(NS(=O)(=O)c3cccs3)c2O[C@@H]1CN(C)C(=O)Nc1cccc2ccccc12	.	1.9
Cc1noc(C)c1S(=O)(=O)N(C)C[C@H]1Oc2c(cccc2N(C)C)C(=O)N([C@@H](C)CO)C[C@@H]1C	.	-0.8
Cc1ccc(S(=O)(=O)Nc2ccc3c(c2)C(=O)N([C@@H](C)CO)C[C@H](C)[C@H](CN(C)S(=O)(=O)c2ccc(F)cc2)O3)cc1	-0.1	1.9
Cc1ccc(N2CCN(C(=O)Cn3nc(Cc4cccnc4)c4ccccc4c3=O)CC2C)cc1 (stereo not given)	0.2	-0.4
O=C(NCc1ccccc1)C(NS(=O)(=O)c1cccs1)c1ccccc1 (stereo not given)	.	5.8
COc1ccc(-c2cc(C(F)(F)F)nc(N3CCOCC3)n2)cc1	.	-3.7
N=c1c(C(=O)NCC2CCCO2)cc2c(=O)n3ccccc3nc2n1CCCN1CCOCC1 (stereo not given)	0.9	-1.6
CCN(CCS(=O)(=O)c1ccc(Cl)cc1)S(=O)(=O)c1ccc(Cl)cc1	0.8	-1.9
COc1ccc2c(c1)nnc1n[nH]c(=O)n12	-0.4	1.6
COc1ccc(CN(C)C[C@@H]2Oc3ccc(NS(=O)(=O)c4cn(C)cn4)cc3C(=O)N([C@H](C)CO)C[C@H]2C)cc1	0.8	-1.9
COc1cccc(NC(=O)Cn2ncc3c4ccccc4n(Cc4ccccc4)c3c2=O)c1	16.5*	2.7
C[C@H]1CN([C@@H](C)CO)C(=O)c2cc(NC(=O)Cc3cn(C)c4ccccc34)ccc2O[C@H]1CN(C)CC1CCCCC1	0.8	-3.8
C[C@@H]1CN([C@H](C)CO)C(=O)c2cc(NS(=O)(=O)c3cn(C)cn3)ccc2O[C@H]1CN(C)C(=O)Nc1cccc2ccccc12	1.6	0.9
O=c1c2ccccc2c(-c2cc(C(F)(F)F)cc(C(F)(F)F)c2)nn1CCO	1.0	4.3
CC1CCN(C(=O)c2cc(Cl)nc3ccccc23)CC1	0.2	-3.5
C[C@H](CO)N1C[C@H](C)[C@@H](CN(C)C(=O)Nc2ccccc2)Oc2ccc(NC(=O)CCC(F)(F)F)cc2C1=O	-0.4	3.0

The list goes on:
SMILES	A1 inh	BJeLR viability
CN(C(=O)C(Cl)Cl)c1ccc(OC(=O)c2ccco2)cc1	1.2	0.7
O=CNCCc1c[nH]c2ccccc12	0.5	1.9
CN(C)CCCO[C@H]1[C@@H](C(O)CO)OC2OC(C)(C)O[C@@H]21 (stereo not given in full)	-0.1	-3.1
Cc1cc(CNC(=O)c2cnc3ccccc3n2)c(C(F)(F)F)o1	-0.6	-2.5
C=C[C@H]1[C@H](O[C@@H]2O[C@H](CO)[C@@H](O)[C@H](O)[C@H]2O)OC=C2C(=O)OCC[C@]21O	0.1	-1.0
C[C@@H]1CN([C@@H](C)CO)C(=O)c2cc(NS(=O)(=O)c3cccs3)ccc2O[C@H]1CN(C)C	1.1	1.0
CC(C)(C)c1ccc(-c2cc3ncc(-c4ccccc4)c(N)n3n2)cc1	-0.1	-3.6
COc1ccc(/C=C2\Cc3ccccc3C2=O)cc1	-1.7	1.8
C[C@@H]1CN([C@H](C)CO)C(=O)c2cccc(NS(=O)(=O)c3ccc(Cl)cc3)c2O[C@H]1CN(C)C(=O)Nc1ccc(F)cc1	.	19.9
COC(=O)c1sc(S(=O)(=O)NC23CC4CC(CC(C4)C2)C3)c(C(=O)OC)c1C	-0.4	-2.2
O=C(Nc1ccc(OCc2ccccc2)cc1)N1CCN(c2ccccn2)CC1	0.2	-4.5
N#Cc1ccc(-c2cccnc2)nc1SCC(=O)O	.	14.0
C[C@H]1CN([C@@H](C)CO)C(=O)c2cccc(NS(=O)(=O)c3cn(C)cn3)c2O[C@@H]1CN(C)Cc1ccncc1	.	6.3
CCc1ccc(-c2nc(CN3CCC(C(=O)NC4CC4)CC3)c(C)o2)cc1	.	-0.5
CC(C)NC(=O)N(C)C[C@@H]1Oc2c(NC(=O)C3CC3)cccc2C(=O)N([C@H](C)CO)C[C@@H]1C	.	-4.0
CSc1nc(-c2ccccc2)nc2c1Cc1ccccc1O2	-0.3	0.7
C[C@@H]1CN([C@H](C)CO)C(=O)c2cc(NS(C)(=O)=O)ccc2O[C@@H]1CN(C)Cc1ccc(C(=O)O)cc1	0.5	-4.6
Cc1ccc(S(=O)(=O)NCCC(c2ccc(F)cc2)c2ccco2)cc1 (stereo not given)	.	1.1
COc1ccc(S(=O)(=O)N(C)C[C@@H]2Oc3ccc(NC(=O)Cc4cn(C)c5ccccc45)cc3C(=O)N([C@H](C)CO)C[C@H]2C)cc1	0.8	4.1
O=C(CSc1nc(NCc2ccccc2)c2ccccc2n1)c1ccc(F)cc1	-0.5	1.5
COc1cc(S(=O)(=O)NCCc2c[nH]c3ccccc23)ccc1-n1cnnn1	0.8	6.6
C[C@]12CCC3c4ccc(O)cc4CCC3C1CC[C@@H]2OC(=O)CCC1CCCC1 (stereo not given in full)	4.0	-1.1
COc1ccc(CCCc2nnc(SCC(=O)Nc3cc(F)ccc3C)o2)cc1C	-0.7	-3.8
O=C1C=CC(O)(/C=C/C(=O)O[C@@H]2[C@@H](O)[C@H](Oc3ccc(O)cc3)O[C@H](CO)[C@H]2O)C=C1	0.1	-2.1
COc1ccc(N(C)S(=O)(=O)c2c(C)[nH]c(=O)[nH]c2=O)cc1	.	5.9

Looked up above.
BJeLR viability with Cc1ccc(S(=O)(=O)NCCC(c2ccc(F)cc2)c2ccco2)cc1 (stereo not given) is entered as 1.1
A1 inh with O=C1C=CC(O)(/C=C/C(=O)O[C@@H]2[C@@H](O)[C@H](Oc3ccc(O)cc3)O[C@H](CO)[C@H]2O)C=C1 is entered as 0.1
BJeLR viability with COc1ccc(/C=C2\Cc3ccccc3C2=O)cc1 is entered as 1.8

(listing goes on)
SMILES	A1 inh	BJeLR viability
CCc1nc(-c2ccc(OC)cc2)cc2cc(OC)c(OC)cc12	-1.0	0.6
C[C@@H]1CN([C@H](C)CO)C(=O)c2cc(NC(=O)C3CC3)ccc2O[C@@H]1CN(C)CC1CC1	-0.5	1.9
CC12CCC3c4ccc(OC(=O)c5ccccc5)cc4CCC3C1CCC2O (stereo not given)	0.3	4.8
CC(C)(C(=O)Oc1ccccc1)S(=O)(=O)c1ccc(C(F)(F)F)cn1	-1.1	-0.9
C[C@@H]1CN([C@@H](C)CO)C(=O)c2cc(NS(=O)(=O)c3cccs3)ccc2O[C@@H]1CN(C)CC1CC1	0.8	-3.8
N#Cc1cccc(NCCN2CCNC2=O)n1	-0.6	-0.3
C[C@H]1CN([C@@H](C)CO)C(=O)c2cc(NC(=O)c3ccncc3)ccc2O[C@H]1CN(C)Cc1ccc2c(c1)OCO2	0.1	-2.3
CCC(C)NC(=O)c1ccc(OC(C)=O)cc1 (stereo not given)	-0.3	0.5
Cc1ccc(S(=O)(=O)Nc2ccc3c(c2)C(=O)N([C@H](C)CO)C[C@H](C)[C@H](CN(C)S(=O)(=O)c2ccc(F)cc2)O3)cc1	0.2	-0.2
Cc1noc(C)c1NC(=O)Nc1cccc2c1O[C@@H](CN(C)Cc1ccncc1)[C@@H](C)CN([C@@H](C)CO)C2=O	.	-0.1
Cc1ccc(C)c(Cn2c(CO)nc3ccccc32)c1	-0.1	5.3
CCOC(=O)c1nnn2c1nc(N(CC)CC)c1ccccc12	-0.1	-0.2
Cc1noc(C)c1NC(=O)N(C)C[C@H]1Oc2c(NC(=O)C3CCOCC3)cccc2C(=O)N([C@@H](C)CO)C[C@@H]1C	.	-1.1
C=CCn1cc(C(=O)OC)c(=O)c2cc(S(=O)(=O)N3CCCCCC3)ccc21	-0.7	9.8
CN(Cc1ccccc1)S(=O)(=O)c1ccc(C(=O)Nc2nc3ccc4ccccc4c3s2)cc1	-0.3	9.4
CC(=O)N1N=C(c2ccc(C)cc2)CC1c1cc2cc3c(cc2nc1Cl)OCO3 (stereo not given)	0.6	-2.2
CC(C)NC(=O)Nc1ccc2c(c1)C(=O)N([C@@H](C)CO)C[C@H](C)[C@H](CN(C)Cc1ccc(Cl)c(Cl)c1)O2	-0.4	2.1
CN(c1ncnc2c1cnn2-c1ccc(Cl)cc1)C1CCCCC1	-2.0	-5.0
Cc1ccc2nc(-c3ccc(NC(=O)C4CCC4)cc3)sc2c1	.	-1.6
